S aureus helic: blocks Staphylococcus aureus DNA helicase | purified S. aureus helicase, fluorescence unwinding assay; about half of the hits fall short of the stated cut | hit rate 0.05% among 120,000 | inhibition, %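 (tested at about 80 µM)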 | AID 485395;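 active = both duplicates at 50% or more, or one of them with a favoured structure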;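 note: 0% = mean of negative control wells and 100% = mean of positive control wells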
MgrA DNA FP: modulators of Staphylococcus aureus MgrA DNA binding | fluorescence polarization | inhibition, %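 (about 10 µg/mL by stock and volumes)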 | hit rate 0.13% among 84,000 | AID 602314;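 active = above 50% in either of two replicates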;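 note: 0% = protein plus DNA without compound and 100% = DNA alone without protein; higher means less MgrA bound to DNA so lower polarization; one replicate is shown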
* marks the source's active call; other numbers are inactive results; & = joins results of further samples. Some of the compounds tested; count on the stated rates, not on these rows.

Screening CCc1nc(SCS(=O)(=O)c2ccc(C)cc2)c(C#N)c2c1CCCC2 returned S aureus helic 4 and MgrA DNA FP 0.2.
CCOC(=O)C1=C(C)N=c2s/c(=C\c3ccc(O)c(OCC)c3)c(=O)n2C1c1ccc(OC)c(OC)c1 (centres undefined) was read as MgrA DNA FP 1.6.
Cc1sc2nc3ccc(NCc4ccco4)nn3c(=O)c2c1C was read as S aureus helic 9.
`O=C1NC(c2ccc([N+](=O)[O-])s2)Nc2ccccc21` (centres undefined) gave MgrA DNA FP 0.3.
For CC(COc1ccc2c(c1)OCO2)NC(=O)Cn1nnc2ccccc2c1=O (centres undefined) the results were S aureus helic -24.
O=C(Nc1ccc(S(=O)(=O)Nc2nccs2)cc1)c1cc(-c2ccccc2)nc2ccccc12 was read as S aureus helic 15 and MgrA DNA FP 1.5.
For COc1ccc(C(=O)Nc2sc(C)c(C)c2CN2CCN(CCO)CC2)cc1 the results were S aureus helic 28.
Screening OCc1c(F)c(F)c(F)c(F)c1F returned MgrA DNA FP -0.3.
Screening CC1CCN(S(=O)(=O)c2ccc(S(=O)(=O)N3CCCN(Cc4ccccc4)C3)cc2)CC1 returned S aureus helic 1 and MgrA DNA FP -6.1.
For CN(C1CCCCC1)S(=O)(=O)c1cc2c(cc1Cl)NC(=O)CO2 the results were S aureus helic 3 and MgrA DNA FP 1.2.
C=CCc1ccc(Oc2ncnc3sc(C)c(C)c23)c(OC)c1 was read as S aureus helic -13.
Cc1ccc(N(C)S(=O)(=O)c2cc(Br)cnc2N)cc1 was read as S aureus helic 15 and MgrA DNA FP 1.1.
For CN(C)Cc1c(O)ccc2c(=O)c(-c3ccc(F)cc3)c(C(F)(F)F)oc12 the results were S aureus helic -33.
Screening CSc1ncccc1C(=O)OCC(=O)NCc1ccccc1 returned S aureus helic 12.
O=C(Nc1cc(Cl)ccc1O)c1nc2ncccn2n1 was read as S aureus helic 1 and MgrA DNA FP 2.5.
For CCCCn1c(CCCNC(C)=O)nc2ccccc21 the results were S aureus helic 7.
`Cc1cc(-c2ccc(S(=O)(=O)N3CCc4ccccc43)s2)on1` gave S aureus helic 12.
Screening COc1cc(OC)c(/C=C2\C(=O)NC(=S)N(c3ccc(Cl)cc3)C2=O)cc1Br returned MgrA DNA FP 12.
Screening Cc1ccc(N(C2CCS(=O)(=O)C2)S(C)(=O)=O)cc1 (centres undefined) returned S aureus helic 11 and MgrA DNA FP 1.4.
O=C(O)C(Cc1ccccc1)N1C(=O)CSC1=S (centres undefined) was read as S aureus helic 8.

4 neighbouring compounds out of the list so far, for reference:
`Cc1cc(-c2ccc(S(=O)(=O)N3CCc4ccccc43)s2)on1` gave S aureus helic 12.
Screening COc1cc(OC)c(/C=C2\C(=O)NC(=S)N(c3ccc(Cl)cc3)C2=O)cc1Br returned MgrA DNA FP 12.
Screening Cc1ccc(N(C2CCS(=O)(=O)C2)S(C)(=O)=O)cc1 (centres undefined) returned S aureus helic 11 and MgrA DNA FP 1.4.
O=C(O)C(Cc1ccccc1)N1C(=O)CSC1=S (centres undefined) was read as S aureus helic 8.

Sorted by count of non-hydrogen atoms (low to high): some entries from above
Screening OCc1c(F)c(F)c(F)c(F)c1F returned MgrA DNA FP -0.3.
O=C(O)C(Cc1ccccc1)N1C(=O)CSC1=S (centres undefined) was read as S aureus helic 8.
`O=C1NC(c2ccc([N+](=O)[O-])s2)Nc2ccccc21` (centres undefined) gave MgrA DNA FP 0.3.
Cc1ccc(N(C)S(=O)(=O)c2cc(Br)cnc2N)cc1 was read as S aureus helic 15 and MgrA DNA FP 1.1.
Screening CSc1ncccc1C(=O)OCC(=O)NCc1ccccc1 returned S aureus helic 12.
Cc1sc2nc3ccc(NCc4ccco4)nn3c(=O)c2c1C was read as S aureus helic 9.
Screening CCc1nc(SCS(=O)(=O)c2ccc(C)cc2)c(C#N)c2c1CCCC2 returned S aureus helic 4 and MgrA DNA FP 0.2.
For CN(C)Cc1c(O)ccc2c(=O)c(-c3ccc(F)cc3)c(C(F)(F)F)oc12 the results were S aureus helic -33.
For CC(COc1ccc2c(c1)OCO2)NC(=O)Cn1nnc2ccccc2c1=O (centres undefined) the results were S aureus helic -24.
Screening CC1CCN(S(=O)(=O)c2ccc(S(=O)(=O)N3CCCN(Cc4ccccc4)C3)cc2)CC1 returned S aureus helic 1 and MgrA DNA FP -6.1.
O=C(Nc1ccc(S(=O)(=O)Nc2nccs2)cc1)c1cc(-c2ccccc2)nc2ccccc12 was read as S aureus helic 15 and MgrA DNA FP 1.5.
CCOC(=O)C1=C(C)N=c2s/c(=C\c3ccc(O)c(OCC)c3)c(=O)n2C1c1ccc(OC)c(OC)c1 (centres undefined) was read as MgrA DNA FP 1.6.

(cont.)
For NNC(=O)c1cc(OCC(F)(F)F)nc(OCC(F)(F)F)c1 the results were MgrA DNA FP -1.7.
Screening N=C(N)c1ccc(OCCCCCOc2ccc(C(=N)N)cc2)cc1 returned MgrA DNA FP 4.7&1.3.
For N/C(=C\C(=O)C(F)(F)F)c1ccc(Cl)cc1 the results were S aureus helic 29.
`O=C(CSC1=NS(=O)(=O)c2cc(Cl)ccc2N1)NCc1ccc2c(c1)OCO2` gave S aureus helic -1.
For Cc1ccc(C)c(N2CCN(C(=O)CCN3C(=O)COc4ccccc43)CC2)c1 the results were S aureus helic 16.
O=C(NC1CCc2ccccc21)c1ccc2c(c1)[nH]c(=O)n2C1CCCCC1 (centres undefined) was read as S aureus helic 3 and MgrA DNA FP -2.9.
OCCc1c[nH]c2ccccc12 was read as MgrA DNA FP 2.3.
Screening O=C1CN(c2ccc(Cl)cc2)C(=O)CN1/N=C/c1ccco1 returned S aureus helic 20.
For NC(=O)c1ccccc1NS(=O)(=O)Cc1ccccc1 the results were S aureus helic 5.
`CCCc1nc2ccccc2c(C(=O)O)c1CC` gave S aureus helic 6 and MgrA DNA FP 2.2.
CS(=O)(=O)Nc1ccccc1C(=O)N1CCOCC1 was read as S aureus helic 5 and MgrA DNA FP -0.4.
O=C(c1ccc(-n2cnnn2)cc1)N(C1CCCCC1)C1CCCCC1 was read as S aureus helic 12 and MgrA DNA FP -0.4.
CCNC(=O)NNc1c(Cl)cccc1Cl was read as S aureus helic -6.
Screening CCOC(=O)C1CCN(CN2C(=O)CCC2=O)CC1 returned S aureus helic 3 and MgrA DNA FP 0.0.
Screening CNC(=O)/C(=C\c1ccc2c(c1)OCO2)NC(=O)c1ccco1 returned S aureus helic 5 and MgrA DNA FP -1.1.
Screening O=S(=O)(NC1CCCCC1Sc1nc2ccccc2o1)c1ccc(Cl)cc1 (centres undefined) returned S aureus helic 11 and MgrA DNA FP 2.4.
`COC(=O)Cc1cc(OC)c(OC)cc1[N+](=O)[O-]` gave MgrA DNA FP -2.5.
For N=c1c2c3c(sc2ncn1Nc1ccccc1)CCC3 the results were MgrA DNA FP 0.7.
For O=C(O)CSc1nc2ccccc2c(=O)n1Cc1ccco1 the results were S aureus helic 0 and MgrA DNA FP -14.
Cc1cccc(OC(C)C(=O)Nc2ccc(S(N)(=O)=O)cc2)c1 (centres undefined) was read as S aureus helic -13 and MgrA DNA FP 3.5.
COC(=O)c1ccc(N2CCCC2)c(NS(=O)(=O)c2ccc(C)cc2)c1 was read as S aureus helic 10 and MgrA DNA FP -0.3.
CCOC(=O)COc1ccccc1/C=C(/C#N)S(=O)(=O)c1cccs1 was read as MgrA DNA FP -1.7.
For O=C(COc1nc2ccccc2nc1N1CCOCC1)N1N=C(c2ccc(Cl)cc2)CC1c1ccco1 (centres undefined) the results were S aureus helic -11.
For COc1cc(C(=O)NCC2COc3ccccc3O2)cc(OC)c1C (centres undefined) the results were S aureus helic 7.
Screening COc1ccc(C2CC(c3ccc(C)cc3)=NN2S(=O)(=O)c2ccccc2)cc1 (centres undefined) returned MgrA DNA FP 2.9.
`CN(c1nc(-c2ccc(Br)cc2)cs1)C1CCS(=O)(=O)C1` (centres undefined) gave S aureus helic 8 and MgrA DNA FP -1.9.
Screening COc1ccc(NC(=O)CN(C)C(=O)Cc2c[nH]c3ccccc23)cc1 returned S aureus helic 10.
`CSc1nc2nc3c(cn2n1)C(=O)CCC3` gave S aureus helic 7 and MgrA DNA FP -1.4.
Screening Cn1ccnc1SCC(=O)Nc1cccc2ccccc12 returned S aureus helic 15 and MgrA DNA FP 0.6.
For COc1ccc(C2NCC3(C)CN2CC(C)C3O)cc1OC (centres undefined) the results were S aureus helic -3 and MgrA DNA FP -1.2.
Screening c1csc(-c2nc(NC3=NCCCCC3)sc2-c2cccs2)c1 returned S aureus helic -10.
`O=C(/C=C/c1cccs1)/C=C/c1cccs1` gave MgrA DNA FP -2.0.
CCOC(=O)c1cc(C)nc(Sc2ccc(NC(C)=O)cc2)n1 was read as MgrA DNA FP 0.7.
`COc1ccc(Cc2nnc(SCC(=O)N(c3ccccc3)C(C)C)n2N)cc1OC` gave S aureus helic 2.
CCOC(=O)C1NCCc2ccccc21 (centres undefined) was read as S aureus helic 9 and MgrA DNA FP 1.2.
For COc1ccccc1/C=C1/C(=O)N(C2CCCCC2)C(=S)N1C the results were S aureus helic -40.
`Cc1ccc(-c2nnc(N3CCOCC3)c3ccccc23)cc1S(=O)(=O)NC(C)(C)CO` gave S aureus helic 14 and MgrA DNA FP -7.4.
`CCCCN(C(=O)c1nc2nccc(C)n2n1)c1ccccc1` gave S aureus helic -3.
Screening CN(C)C(CNc1ncnc2cc(Cl)ccc12)c1ccco1 (centres undefined) returned S aureus helic -3.
CC(C)N(Cc1ccccc1)C(=O)c1ccc(F)cc1F was read as MgrA DNA FP 4.2.
For O=c1cc(CN2CCN(Cc3ccccc3)CC2)occ1OCc1cccc(F)c1 the results were S aureus helic 16.
N=c1n(-c2ccccc2)c(=N)n(-c2ccccc2)c(=N)n1-c1ccccc1 was read as S aureus helic 10 and MgrA DNA FP -4.0.
`COc1ccc(O)c(C(=O)c2cc(C#N)c(=O)n(-c3c(C)n(C)n(-c4ccccc4)c3=O)c2)c1` gave S aureus helic -226.
`O=C(O)CS(=O)(=O)c1nc2ccccc2s1` gave S aureus helic -13 and MgrA DNA FP -3.8.
For CCCC(=O)Nc1ccc2c(C)cc(C)nc2n1 the results were S aureus helic 3 and MgrA DNA FP -3.9.
CN(CCc1ccccn1)C(=O)c1cccc(Oc2ccccc2)c1 was read as S aureus helic 9.
`CC(C)(C)NC(=O)CN1CCN(Cc2c(O)c(C(=O)N3CCOCC3)cc3ccccc23)CC1` gave S aureus helic 8.
`O=C(c1ccc(N2CCCC2=O)cc1)N1CCc2ccccc2C1` gave S aureus helic 33.
CC(Oc1ccc(C#N)cc1)C(=O)O (centres undefined) was read as S aureus helic 21.
Screening O=C(CSc1nnc(-c2cccs2)n1-c1ccccc1)OC1CCS(=O)(=O)C1 (centres undefined) returned S aureus helic 4.
COC(=O)[C@@]1(C)CCCC2(C)c3ccc(C(C)C)cc3CCC21 (some centres undefined) was read as S aureus helic 12 and MgrA DNA FP 1.4.
Screening Cc1ccc(/C=N/NC=O)o1 returned S aureus helic 20.
`O=C(c1ccc(/C=C2\Sc3ccccc3N(Cc3ccccc3F)C2=O)cc1)N1CCN(C(=O)c2ccco2)CC1` gave S aureus helic 26.
For O=C(Nc1nc2ccccc2[nH]1)C1CC(=O)N(CCc2ccccc2)C1 (centres undefined) the results were S aureus helic -11.
`CCSc1ncc(S(=O)(=O)c2ccccc2)c(N)n1` gave S aureus helic -15.
Screening CN(Cc1ccccc1)c1ncnc2c1cnn2-c1ccccc1 returned S aureus helic 2.
For COc1ccc(CNC(=O)c2cc(C(C)C)on2)cc1 the results were S aureus helic 5 and MgrA DNA FP 0.0.
`CC(OC(=O)CCN1C(=O)c2ccccc2C1=O)c1ccccc1` (centres undefined) gave S aureus helic 13 and MgrA DNA FP -0.7.
`COc1cccc(NC(=O)COC(=O)CCC2CCCC2)c1` gave S aureus helic -2.
`O=C(Nc1cccc(F)c1)[C@H](Cc1ccccc1)N1Cc2ccccc2C1=O` gave S aureus helic 17 and MgrA DNA FP -1.0.
`O=C(Nc1nc2ccc(Oc3ccccc3)cc2s1)c1ccco1` gave S aureus helic -12.
CC(=NCc1ccco1)C1=C(O)c2ccccc2C1=O was read as S aureus helic 25 and MgrA DNA FP 1.2.
`O=C(Cc1ncc(C(F)(F)F)cc1Cl)NCC1CCCO1` (centres undefined) gave MgrA DNA FP -0.8.
Screening C/C(=N\NC(=O)Cc1ccc(F)cc1)c1ccc(O)cc1 returned S aureus helic -28.
`CCCN1C/C(=C/c2ccc(OC)cc2)C(=O)/C(=C/c2ccc(OC)cc2)C1` gave S aureus helic 6 and MgrA DNA FP 0.8.
Screening CSc1ccccc1NC(=O)CN(C)Cc1nnc(-c2ccccc2)o1 returned S aureus helic -4.
For N#Cc1c(SCc2ccccc2F)nc(C(F)(F)F)c2c1CCC2 the results were S aureus helic 3 and MgrA DNA FP 0.0.
CNC(=O)CSc1nc2ccccc2c(=O)n1C1CCCCC1 was read as S aureus helic 3 and MgrA DNA FP -1.6.
O=C(CN1CCOc2ccccc21)NCc1ccc(Cl)cc1 was read as S aureus helic -5.
`c1csc(-c2cnc3ccccc3n2)c1` gave MgrA DNA FP -2.1.
Cn1nc(C(F)(F)F)c(-c2ccccc2)c1N1C(=O)C2C3C=CC(C3)C2C1=O (centres undefined) was read as MgrA DNA FP 2.5.
For CCCN(S(=O)(=O)c1ccc(C)cc1)S(=O)(=O)c1ccc(Cl)cc1 the results were S aureus helic 14.
Screening Nc1nonc1C(=O)NCCN=Cc1ccccc1O returned S aureus helic 17.
Screening c1cncc(-c2nnc3n2C2(CCCCC2)Cc2ccccc2-3)c1 returned S aureus helic 12.
Screening CCOc1ccc2nc3c(c(C(=O)O)c2c1)CCCC3 returned S aureus helic 0 and MgrA DNA FP 1.9.
`CSc1nc(N)c(C(=O)Nc2ccc(N(C)C)cc2)s1` gave S aureus helic -2 and MgrA DNA FP -1.8.
For CC(C)(C)C1CCC(OCC(O)CN2CCCCCC2)CC1 (centres undefined) the results were S aureus helic -8 and MgrA DNA FP -0.8.
COc1ccc(C#N)c(S(=O)Cc2ccccc2)c1 (centres undefined) was read as S aureus helic 5 and MgrA DNA FP -0.8.

High-throughput results (PubChem)
